# Assay outcomes from PubChem BioAssay.
# miR-21 FLuc: raises the signal of a miR-21 reporter. Potency, µM (titrated, usually from 38.3 µM), inactives show at the top dose reporter change, positive = more light. 340,000 tested, under 10 active. HeLa miR-21 FLuc reporter, luciferase, 48 h; active = well fitted rising curve with a large enough effect; inconclusive = small, poorly fitted or top-dose-only effect; inactive = no such curve, though single readings can be large or run the other way;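 note: % of control where 0% means no effect; miR-21 action dims this reporter so a rising signal means less miR-21 action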
#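 HeLa cells endogenously expressing miR-21, stably carrying CMV-driven firefly luciferase with a downstream miR-21 binding site, 2000 cells/well. Titrations up to approximately 40 uM, 48 hours; luciferase luminescence read.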
# Active calls of the source: *; ? = inconclusive; [ ] = dose if it differs, or a comment. This is a subset, so the mix of outcomes need not match the whole.
SMILES,miR-21 FLuc
COc1ccc(CCNC(=O)Cn2nc(C)n3c(cc4cc(F)ccc43)c2=O)cc1OC,-6%
COc1ccc(-c2nc(SCC(=O)NCCc3ccc(OC)c(OC)c3)n[nH]2)cc1,-10%
CCCCOc1ccc(-c2nn(-c3ccccc3)cc2C2NC(=O)NC(C)=C2C(=O)OCC)cc1 (stereo not drawn),1%
COc1ccccc1C(=O)Nc1sc(Nc2ccccc2)nc1C(N)=O,0%
COc1cc2ncc3c(-c4ccc(C)cc4)nn(-c4ccc(F)cc4F)c3c2cc1OC,0%
Clc1cccc(-n2ncc3c(N4CCCCCC4)ncnc32)c1,-32%
COc1ccccc1N1CCN(c2ncnc3onc(-c4ccc(F)cc4)c23)CC1,-4%
CCn1c(NCc2ccc(OC)c(OC)c2)nc2ccccc21,13%
CCOc1ccc(C(=O)Nc2cccc(OCc3cc(=O)n4ccccc4n3)c2)cc1,-1%
O=C(Cn1c(=O)oc2cc(S(=O)(=O)N3CCCCCC3)ccc21)Nc1ccc(F)cc1F,-32%
CCC1CCCCN1CC(=O)N1CCCc2c1c(=O)oc1ccc(OCc3ccccc3)cc21 (stereo not drawn),?
Cc1ccccc1CCNC(=O)c1ccc2c(c1)nc1n2CCOC1,-22%
CCCN1CCN(CCCNC(=O)Cn2c(-c3cccs3)cc3ccccc32)CC1,5%
COc1ccc(NC(=O)CCNS(=O)(=O)c2ccc3c(c2)CCCC(=O)N3)cc1,1%
COc1ccc(Nc2nc(C)nc(N)c2S(=O)(=O)c2ccccc2)cc1,-5%
CCOC(=O)N[C@H](Cc1c[nH]c2ccccc12)C(=O)Nc1cccc(Cl)c1,?
CCOc1ccc(C(=O)Nc2cc(-c3nc4ccccc4o3)ccc2C)cc1Cl,-2%
O=C1CCCc2cc(S(=O)(=O)N3CCCC(C(=O)NCc4ccc(Cl)cc4)C3)ccc2N1 (stereo not drawn),21%
COc1cc2nc(NCCc3ccc(Cl)cc3)n3nc(-c4ccccc4)nc3c2cc1OC,5%
CCCCN(CC)CCCNC(=O)Cn1ncc2c3ccccc3n(Cc3ccccc3F)c2c1=O,-1%
O=C(Nc1cc(F)ccc1F)c1cc2nc(-c3ccco3)cc(C(F)(F)Cl)n2n1,-10%
CCCNc1ccc(-c2nc(-c3ccncc3)no2)cc1[N+](=O)[O-],1%
Cc1cccc(OCC(=O)OCc2cc(=O)n3nc(C4CC4)sc3n2)c1,-16%
Cc1ccc(-n2nc(C(=O)N3CCN(c4cccc(C(F)(F)F)c4)CC3)c3c4ccccc4n(C)c3c2=O)cc1,-2%
CC(=O)Nc1ccc(-n2c(CCC(=O)O)ccc2-c2ccc(Br)cc2)cc1,-1%

# Some of these compounds in order of count of non-hydrogen atoms, rising.
SMILES,miR-21 FLuc
Cc1ccccc1CCNC(=O)c1ccc2c(c1)nc1n2CCOC1,-22%
Cc1cccc(OCC(=O)OCc2cc(=O)n3nc(C4CC4)sc3n2)c1,-16%
COc1ccccc1N1CCN(c2ncnc3onc(-c4ccc(F)cc4)c23)CC1,-4%

# Following part
SMILES,miR-21 FLuc
COc1ccc(Cn2ccc3nc(C)c(C(=O)NCc4cccc(OC)c4)cc3c2=O)cc1,17%
CNS(=O)(=O)c1cn(CC(=O)Nc2ccc(F)cc2F)cc1S(=O)(=O)NC,0%
CCC1CN(C(=O)N2CCC(C(=O)NCCc3cc(OC)ccc3OC)CC2)c2ccccc2O1 (stereo not drawn),21%
CCOc1ccccc1NC(=O)CCn1cnnn1,-5%
CC(C)NC(=O)c1ccc(CSc2nc3ccncc3n2Cc2cccc(F)c2)cc1,-6%
COc1ccc2oc(-c3ccc(NC(=O)c4ccc(Cl)cc4Cl)cc3)nc2c1,-2%
CCOc1ccc(NC(=O)C(=O)NCCc2sc(-c3ccc(C)cc3)nc2C)cc1,4%
CCCNC(=O)N1[C@H](c2cccs2)[C@@H](C)C(=O)[C@@H](C)[C@@H]1c1cccs1,-48%
O=c1c2sc3ccccc3c2n(Cc2ccccc2F)c(=O)n1-c1ccccc1Cl,2%
COc1ccc(Cl)cc1NC(=O)c1cc2ccc3ccc(C)[nH]c3c2n1,-5%
CCn1cc(C(=O)N(C)Cc2ccccc2)c(=O)c2cc(S(=O)(=O)N3CCCCC3)ccc21,-11%
CCCN(c1ccccc1F)S(=O)(=O)c1cc(-c2cc(C)no2)ccc1C,15%
Oc1c(C(c2ccc(Cl)cc2Cl)N2CCCC2)sc2nc(-c3ccco3)nn12 (stereo not drawn),-1%
COc1ccc(C(=O)COC(=O)c2cccc(NC(=O)c3ccc(OC)c(OC)c3)c2)cc1,18%
CCN(C(=O)c1cc2c(=O)oc3ccccc3c2s1)c1ccc(C)c(C)c1,2%
Cc1cc(C)nc(-n2nc(C)c3c2NC(=O)CC3c2ccccc2OC(C)C)n1 (stereo not drawn),-1%
CCC(Oc1ccccc1)C(=O)Nc1cc(-c2cccc(C)c2)nn1-c1ccccc1 (stereo not drawn),-1%
COc1cccc2cc(-c3nc4sc5c(c4c(=O)[nH]3)CCC(C(C)(C)C)C5)c(=O)oc12 (stereo not drawn),0%
COc1cc(NC(=O)Cn2ccc3ccccc3c2=O)cc(OC)c1OC,-2%
Cc1c(C(N)=O)nnn1-c1ccc(Br)cc1,2%
O=C(Cc1ccccc1)N(Cc1cccnc1)c1nc2ccc(Cl)cc2s1,-5%
CCOC(=O)c1ccc(NC(=O)C(Cc2ccccc2)NS(=O)(=O)c2ccc(Br)s2)cc1 (stereo not drawn),-1%
Clc1ccc(-c2ccc(CNCCSc3nnnn3-c3ccccc3)o2)cc1,9%
Cc1ccc(N2CC(C(=O)Nc3ccc(Cl)cc3Cl)CC2=O)cc1 (stereo not drawn),-2%
COC(=O)c1ccc2c(=O)n(CCCCCC(=O)NCc3ccc(Cl)cc3)c(=O)[nH]c2c1,3%

# Other structures
SMILES,miR-21 FLuc
CCC(Sc1nc2cc(OC)c(OC)cc2c(=O)n1Cc1ccc(Cl)cc1)C(=O)NCCOC (stereo not drawn),-2%
Cc1ccc(S(=O)(=O)Nc2cc3c(cc2Cl)n(C)c(=O)c(=O)n3C)cc1,-11%
Cc1nc2c(C(=O)NCCc3ccccc3)c[nH]n2c(=O)c1Cc1ccccc1F,-8%
Cc1ccc(-c2nc(-c3cc4c([nH]c3=O)CC(C)(C)CC4=O)sc2C)cc1,-8%
CCc1ccc(N2C(=O)CC(c3cc(OC)ccc3OC)C3=C2COC3=O)cc1 (stereo not drawn),-6%
CCOC(=O)c1ccc(NC(=O)CC2C(=O)N(c3ccc(C)cc3)C(=O)N2C2CCCCC2)cc1 (stereo not drawn),1%
CCCCN(C)CCCNC(=O)C1CCN(S(=O)(=O)CC)CC1,-3%
O=S(=O)(Nc1cccc(-c2ccc(N3CCCC3)nn2)c1)c1ccc(F)cc1F,-41%
COc1cccc(C2C(C(=O)Nc3ccccc3)=C(C)Nc3nc(-c4ccccc4)nn32)c1 (stereo not drawn),10%
Cn1c(=O)n(Cc2c(F)cccc2Cl)c(=O)c2c1nc1n2CCN1c1ccc(F)cc1,-5%
O=C(CSc1oc(-c2ccccc2)nc1S(=O)(=O)c1ccccc1)c1ccccc1,11%
Cc1cccc(CNC(=O)c2ccc(NC(=O)N3CCSc4ncccc43)cc2)c1,-7%
COc1ccc(CC(=O)N2CCc3cc(OC)c(OC)cc3C2COc2cc(C)cc(C)c2)cc1OC (stereo not drawn),19%
CCN(CC)S(=O)(=O)c1ccc(NC(=O)c2nn(C)c3c2CSc2ccccc2-3)cc1,0%
O=C(c1ccc(CS(=O)c2ccccc2Cl)o1)N1CCN(c2cccc(C(F)(F)F)c2)CC1 (stereo not drawn),?
Cc1ccc(-n2nc(C(=O)Nc3ccc(F)cc3F)c3c4ccccc4n(C)c3c2=O)cc1,0%
Cc1ccc2c(c1)-c1nc(-c3ccc4c(c3)NC(=O)CO4)cc(-c3ccc(F)cc3)c1CO2,2%
CC(=O)c1ccc(NC(=O)c2sc(-n3nc(C)c(Cc4ccc5c(c4)OCO5)c3C)nc2C)cc1,-11%
COc1ccc(C2CC(=O)Nc3c2c(=O)[nH]c2nc4ccccc4n32)cc1 (stereo not drawn),-1%
COc1cc(CN(C(=O)c2ccc(C)cc2)C2CCS(=O)(=O)C2)cc(OC)c1OC (stereo not drawn),-4%
Cc1cc(SCC(=O)NCc2ccc(Cl)cc2)nc(=O)[nH]1,7%
CC(C)(C)OC(=O)N1CCC(c2c(C(=O)NCCN3CCOCC3)cnn2-c2ccc(F)cc2F)CC1,-4%
CCC(=O)N1CCc2cc(S(=O)(=O)NC(C(=O)NCCc3ccc(Cl)cc3)C(C)C)ccc21 (stereo not drawn),-1%
Cc1ccc(CCNC(=O)c2ccc(CS(=O)(=O)c3ccc(Cl)cc3)o2)cc1,4%
O=C(c1ccc(Br)cc1)N(Cc1ccco1)c1ccccn1,-20%

# (next part)
SMILES,miR-21 FLuc
CSc1ccc(CCNC(=O)c2cnn(-c3ccccc3)c2-n2cccc2)cc1,?
CCOc1ccc(-c2c(C)nn3c(C)c(C(=O)NCc4ccc(Cl)cc4)cnc23)cc1OCC,-1%
Cc1noc(C)c1S(=O)(=O)N(CC(=O)Nc1ccc(F)cc1F)c1ccc(C(C)C)cc1,8%
CCOc1ccc(S(=O)(=O)n2ccnc2C)cc1,5%
O=C(NCc1cccc(Cl)c1)C1CCN(C(=O)c2sccc2-n2cccc2)CC1,0%
COc1ccc(-c2nc(CCNC(=O)c3ccccc3)cs2)cc1OC,12%
CC1CCCN(CCCNC(=O)Cn2ncc3c([nH]c4ccccc43)c2=O)C1 (stereo not drawn),-5%
Cc1ccc(Cn2c(C(=O)Nc3cccc(Cl)c3)cc3sccc32)cc1,0%
CNC(=O)C1CCC(Cn2c(=O)c3sccc3n(Cc3cc(C)ccc3C)c2=O)CC1 (stereo not drawn),-3%
CC(CCc1ccccc1)NC(=O)Cn1ncc2c3ccccc3n(Cc3ccc(F)cc3)c2c1=O (stereo not drawn),0%
CCOc1ccc(CNC(=O)c2ccc3nc(C(C)C)oc3c2)cc1,-5%
CCc1c(CN2CCN(c3cccc(C)c3)C(C)C2)csc1C (stereo not drawn),5%
O=C(CSc1nc2c([nH]c3ccccc32)c(=O)n1-c1ccccc1)c1ccccc1,2%
COc1ccc(C(=O)NCCn2cc(SCC(=O)Nc3ccc(F)cc3)c3ccccc32)cc1,?
CSc1nc2c(c(=O)[nH]1)C(c1cccc(F)c1F)CC(=O)N2 (stereo not drawn),-11%
Cc1ccc(-n2ncc(C(=O)NCCN3CCc4ccccc4C3)c2C2CCN(C(=O)OC(C)(C)C)CC2)c(C)c1,7%
COc1ccc(CNC(=O)Cn2ccc3cc(S(=O)(=O)N4CCCC4)ccc32)c(OC)c1,-8%
COc1ccccc1N1CCN(C(=O)CCS(=O)(=O)c2cc(Br)cc3c2N(C(=O)C2CC2)CC3)CC1,12%
Cc1ccc(NC(=O)c2c3c(nc4ccccc24)C(=O)N(C2CCCCC2)C3)cc1F,-3%
CCc1ccc(NC(=O)CC2C(=O)N(c3ccc(OC)cc3)C(=O)N2Cc2cccs2)cc1 (stereo not drawn),7%
CCn1nnc2cc(C(=O)Nc3ccc(C)cc3Br)ccc21,-50%
CCOC(=O)c1c(NC(=O)c2cc(OCC)c(OCC)c(OCC)c2)sc2c1CCCCC2,-6%
COc1cccc(NC(=O)Cn2cc(C(=O)c3ccc(F)cc3)c(=O)c3cc(OC)ccc32)c1,5%
CCCCN(Cc1cc2cc(C)ccc2[nH]c1=O)C(=O)c1cccc(Cl)c1,-6%
CC(C)c1ccc(C2N=C(N)Nc3nc4ccccc4n32)cc1 (stereo not drawn),7%

# Following part:
SMILES,miR-21 FLuc
COc1ccccc1CNC(=O)CCn1c(=O)c2ccccc2n(CC(=O)Nc2ccc(C)cc2)c1=O,-7%
Cc1c2cnn(CC(=O)N3CCCCC3)c(=O)c2c(C)n1Cc1ccc(Cl)cc1,-8%
CCOC(=O)c1c(NC(=O)c2cc(-c3ccccc3)on2)sc2c1CCCC2,-1%
CC1CCCN(S(=O)(=O)c2ccc3c(c2)CCN3C(=O)CCC(=O)O)C1 (stereo not drawn),-1%
CCn1c(C)c(C)c2cc(C(=O)NCC(C)c3ccccc3)ccc21 (stereo not drawn),-8%
CCN(C(=O)CSc1nc2ccccc2n1CC(=O)Nc1ccccc1C)c1ccccc1,?
O=C(Nc1cccc(Cl)c1Cl)c1cc2nc(-c3ccc4c(c3)OCO4)cc(C(F)(F)F)n2n1,0%
COc1cccc(CNC(=O)c2ccc3c(Cl)c4c(nc3c2)CCCC4)c1,-7%
COc1cc2c(cc1OC)C1O[C@](c3ccsc3)(C2)OC2=C1C(=O)CC(C)(C)C2,-14%[7.66 µM]

# Grouped by structure, the entries above with an NH in an aromatic ring.
SMILES,miR-21 FLuc
COc1ccc(-c2nc(SCC(=O)NCCc3ccc(OC)c(OC)c3)n[nH]2)cc1,-10%
CCOC(=O)N[C@H](Cc1c[nH]c2ccccc12)C(=O)Nc1cccc(Cl)c1,?
COc1ccc(Cl)cc1NC(=O)c1cc2ccc3ccc(C)[nH]c3c2n1,-5%
COc1cccc2cc(-c3nc4sc5c(c4c(=O)[nH]3)CCC(C(C)(C)C)C5)c(=O)oc12 (stereo not drawn),0%
COC(=O)c1ccc2c(=O)n(CCCCCC(=O)NCc3ccc(Cl)cc3)c(=O)[nH]c2c1,3%
Cc1nc2c(C(=O)NCCc3ccccc3)c[nH]n2c(=O)c1Cc1ccccc1F,-8%
Cc1ccc(-c2nc(-c3cc4c([nH]c3=O)CC(C)(C)CC4=O)sc2C)cc1,-8%
COc1ccc(C2CC(=O)Nc3c2c(=O)[nH]c2nc4ccccc4n32)cc1 (stereo not drawn),-1%
Cc1cc(SCC(=O)NCc2ccc(Cl)cc2)nc(=O)[nH]1,7%
CC1CCCN(CCCNC(=O)Cn2ncc3c([nH]c4ccccc43)c2=O)C1 (stereo not drawn),-5%
O=C(CSc1nc2c([nH]c3ccccc32)c(=O)n1-c1ccccc1)c1ccccc1,2%
CSc1nc2c(c(=O)[nH]1)C(c1cccc(F)c1F)CC(=O)N2 (stereo not drawn),-11%
CCCCN(Cc1cc2cc(C)ccc2[nH]c1=O)C(=O)c1cccc(Cl)c1,-6%
